T cruzi inh = blocks replication of Trypanosoma cruzi. AID 1885. 1.4% of 300,000 active. T. cruzi beta-gal in NIH3T3, luminescence, 90 h. inhibition, % (no concentration beside the values);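 active = mean inhibition across valid replicates above about 55%, limit read from the data; inconclusive = mean below that limit but half or more replicates reach it; inactive = mean below it, under half of replicates reach it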;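 note: signal also drops with host cell toxicity which is not excluded here; 0% = plate median of DMSO wells and 100% = zero luminescence signal; higher percent means less beta-gal luminescence so fewer parasites; stock transfer was 50 nL into about 50 µL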
RanGTP-Impb inh = disruptors of Ran-importin-beta complex formation – biochemical, FRET, CFP-Ran, YFP-importin-beta, homogeneous, primary screen | cell-free CFP-Ran/YFP-importin-beta FRET ratio | inhibition, % (no concentration beside the values) | 1.1% of 300,000 active | AID 2216;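 active = most replicates above 15%; inconclusive = exactly half above 15%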;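 note: 0% = DMSO wells and 100% = Ran loaded with GDP instead of GTP; wells of about 40 µL received 100 nL stock; the first replicate is given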
Ecoli rRNA inh = selective bacterial rRNA inhibition in E. coli; E. coli WT GFP vs humanized-ribosome RFP mutants, fluorescence, 24 h; active compounds read low; DMSO median 0, no signal -100; GFP signal change (wild-type ribosome), % (test concentration not listed); AID 720706; 1.6% of 350,000 active;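 active = significant combined selectivity score with lowered wild-type GFP, culture density cut under 30%, mutant RFP and density less affected; inactive = any of these conditions unmet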; note: one replicate is shown; some compounds called inactive have numbers as strong as hits
ALR inh = blocks human ALR sulfhydryl oxidase activity; P55789; AID 485317; inhibition, % (no concentration beside the values); 3.8% of 290,000 active; purified ALR, DTT oxidation, H2O2 HRP-luminol luminescence;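 active = mean and each replicate at 75% or more; inconclusive = only one of the two met; inactive = neither met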;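 note: stock transfer was 7.5 nL into about 7.5 µL; 0% = neutral wells and 100% = wells with inactivated enzyme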
Target sequence (P55789 whole entry, looked up): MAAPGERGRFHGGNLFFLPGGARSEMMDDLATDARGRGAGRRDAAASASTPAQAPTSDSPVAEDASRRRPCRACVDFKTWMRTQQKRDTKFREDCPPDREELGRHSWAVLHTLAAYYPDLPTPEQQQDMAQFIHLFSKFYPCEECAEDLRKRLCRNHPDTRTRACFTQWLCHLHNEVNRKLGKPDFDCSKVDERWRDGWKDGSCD
FGF22 binding = binders of recombinant human FGF22 by thermal shift; SYPRO orange fluorescence; percent of sucrose octasulfate shift, DMSO zero; calls only at 9.99 µM; 1.5% of 340,000 active; AID 651658;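 active = melting point raised past a set limit in the mean and every replicate; inconclusive = no clear call; three in four hits are not shown here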
Target sequence (Q9HCT0 whole entry, looked up): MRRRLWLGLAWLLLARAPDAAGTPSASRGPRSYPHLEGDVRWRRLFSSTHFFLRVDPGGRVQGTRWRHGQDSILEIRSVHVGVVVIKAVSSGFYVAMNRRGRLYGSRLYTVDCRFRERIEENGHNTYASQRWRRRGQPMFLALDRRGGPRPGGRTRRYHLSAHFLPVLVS
AF4-AF9 inh = MLL-AF4/AF9 protein interaction inhibition; P42568; AlphaScreen, biotin-AF4 peptide binding to FLAG-AF9; inhibition, % at 10 µM; 0.47% of 350,000 active; AID 651704;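 active = every replicate reaching a set inhibition limit, whatever the replicate mean, cut at about 25% in these data; inconclusive = mean inhibition reaches that limit but some replicates miss it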;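 note: 0% = plate neutral control median and 100% = total signal loss; the record names both 10 and 1 µM as test concentration; the first replicate is given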
Target sequence (P42568 whole entry, looked up): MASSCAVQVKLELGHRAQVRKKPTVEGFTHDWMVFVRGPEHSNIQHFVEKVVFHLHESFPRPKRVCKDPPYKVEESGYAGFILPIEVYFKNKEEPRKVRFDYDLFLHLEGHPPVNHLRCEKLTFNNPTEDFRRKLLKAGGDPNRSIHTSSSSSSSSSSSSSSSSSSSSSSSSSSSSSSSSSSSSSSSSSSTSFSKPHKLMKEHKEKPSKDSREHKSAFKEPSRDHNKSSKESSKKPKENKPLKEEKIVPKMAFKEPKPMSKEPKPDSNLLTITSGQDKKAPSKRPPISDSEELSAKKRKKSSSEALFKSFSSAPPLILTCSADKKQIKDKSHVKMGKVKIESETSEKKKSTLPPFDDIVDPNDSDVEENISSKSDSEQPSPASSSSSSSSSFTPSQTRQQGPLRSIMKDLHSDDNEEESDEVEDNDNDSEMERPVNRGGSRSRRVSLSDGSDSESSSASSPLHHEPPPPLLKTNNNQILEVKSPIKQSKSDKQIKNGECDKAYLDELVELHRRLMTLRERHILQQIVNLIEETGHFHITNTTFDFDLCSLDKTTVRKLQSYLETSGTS
Calb FLC = C. albicans growth modulation with fluconazole; 0.57% of 300,000 active; growth inhibition, % (test concentration not listed); C. albicans CaCi-2 (fluconazole-resistant clinical isolate) + fluconazole, Alamar Blue growth, 48 h;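 active = most replicates above 75%; inconclusive = exactly half above 75%; inactive = most below 75%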;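 note: all wells also contain fluconazole at 8 µg/ml as a sub-toxic cotreatment; 0% = median of DMSO wells and 100% = median of geldanamycin control wells; wells of about 8 µL received 7.5 nL stock; the first replicate is given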
Beta cell apopt = beta cell apoptosis inhibition. protection from apoptosis, % (test concentration not listed). 0.8% of 300,000 active. INS-1E cytokine-induced death, ATP luminescence, 48 h; percent of positive-control rescue, neutral wells zero;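 active = all replicates at 75% or more, or half of them and the mean; inconclusive = half reach 75% but not the mean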;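 note: 0% = cytokine-treated negative control wells and 100% = positive control rescue; higher means more ATP so stronger rescue from cytokine killing; wells of about 40 µL received 100 nL stock; the first replicate is given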
Ecoli rRNA inh OD600 = second read-out of Ecoli rRNA inh, no call of its own (marks repeat the call); OD600 change, %; measured here: OD600 growth;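 optical density of the mix in the first replicate; 0 = DMSO median and -100 = no signal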
Ecoli rRNA inh RFP = recorded beside Ecoli rRNA inh, whose call it bears; RFP signal change, %; measured here: RFP humanized mutant strains;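 first replicate; 0 = DMSO median and -100 = no signal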
Active calls of the source: *; i = inactive; ? = inconclusive; nt = not tested or not shown; & = joins results of further samples.

SMILES	T cruzi inh	RanGTP-Impb inh	Ecoli rRNA inh	Ecoli rRNA inh OD600	Ecoli rRNA inh RFP	ALR inh	FGF22 binding	AF4-AF9 inh	Calb FLC	Beta cell apopt
COc1ccc(-n2c(CCc3ccccc3)nnc2SCC(=O)c2ccccc2)cc1	25	?	-29	-34	-1.2	10	i	6.7	7	-2
COc1ccc(-c2nc3c(n2O)CCC/C3=N\O)cc1	-17	-3.2	nt	nt	nt	7	nt	nt	21	3
CC1(C)CC(=O)C2=C(C1)Oc1ncn(CCO)c(=N)c1C2c1ccccc1 (stereo not drawn)	-8	3.3	nt	nt	nt	4	nt	nt	-3	0
COc1ccc(N2CCN(CC(=O)Nc3ccc(C)c(C)c3)CC2)cc1	-6	?	3	2	0.4	98*	i	8.2	8	nt
COc1ccc(/C(O)=C2/C(=O)C(=O)N(CCN3CCNCC3)C2c2cccc([N+](=O)[O-])c2)cc1 (stereo not drawn)	-8	-5.8	3	7	-0.3	-18	i	4.6	1	-2
Cc1ccc(-c2nnc(CCC(=O)NCC3C4CC5CC(C4)CC3C5)o2)s1 (stereo not drawn)	4	-3.1	6	11	-3.2	-5	i	-0.8	?	6
COc1ccc(CN(C(=O)CSc2nnc(-c3ccccc3F)o2)c2ccc(F)cc2)cc1	27	-1.9	nt	nt	nt	-4	nt	nt	-12	2
Cc1csc(SCC(=O)NC(=O)NC2CCCC2)n1	0	-0.9	6	-3	1.4	0	i	0.1	0	-7
CC1=C(C(=O)NCCc2ccc(C)cc2)C2(CCC(C)CC2)OC1=O (stereo not drawn)	-1	0.3	-1	-21	-10	-4	i	2.3	15	4
CCSc1nc(N)c2c(C)c(C)sc2n1	-1	?	nt	nt	nt	nt	nt	nt	9	-5
CCc1nc2ccccc2c(=O)n1/N=C/c1ccc(OC)cc1	14	-1.9	25	16	3.5	-19	i	0.0	-4	0
Cc1cc(C[n+]2cc(Br)ccc2N)c2ncccc2c1	12	0.0	17	6	-2.6	-8	i	-0.2	-5	-2
COCCCNC(=O)CCN1C(=O)COc2ccccc21	-12	-0.1	nt	nt	nt	-9	nt	nt	-6	-3
CCOCCCNC(=O)c1c[nH]c2ccc(OCC)cc2c1=O	2	1.4	-5	12	-8.7	nt	i	2.7	4	12
N=c1sccn1CC(=O)NC(=O)NC1CCCC1	-8	?	nt	nt	nt	-5	i	-3.4	-1	-8
Cc1ccc(CNC(=O)c2ccc(OCC3CCCO3)cc2)cc1 (stereo not drawn)	-11	4.1	nt	nt	nt	-2	nt	nt	3	-4
COC(=O)C1CCN(C(=O)c2ccc3nccnc3c2)CC1	6	-2.8	18	26	1.7	-26	i	-1.7	32	-9
CN(C)S(=O)(=O)N(CC(=O)Nc1ccc(F)c(F)c1)c1ccccc1	-6	-2.2	-5	-1	1.0	-13	i	6.9	-3	4
CCc1ccc(NC(=O)C2CCN(S(=O)(=O)c3ccc4c(c3)N(C(C)=O)CCO4)CC2)cc1	-2	3.4	nt	nt	nt	-7	nt	nt	-4	3
Cc1ccc(S(=O)(=O)N2CCN(c3ccnc4cc(Cl)ccc34)CC2)cc1C	27	2.7	-13	-14	-2.5	-6	i	-2.7	-5	54
CCCOc1ccc(N2C(=O)CC(N(CCCO)C(=O)CC)C2=O)cc1 (stereo not drawn)	-11	-2.4	-4	-14	-1.9	8	i	-1.0	0	-10
COc1cc(/C=C2/SC(=S)N(Cc3ccccc3)C2=O)ccc1OS(C)(=O)=O	8	-6.3	9	5	0.6	1	i	5.4	3	-7
CN(C(=O)CSc1nnnn1-c1ccccc1)C1CCS(=O)(=O)C1 (stereo not drawn)	-12	4.6	28	24	0.8	-12	i	-0.7	30	-2
Cc1ccc(OC(=S)Nc2ccccc2)c(C)c1	-11	-3.0	nt	nt	nt	-10	nt	nt	2	-3
CC(=O)OCc1nc2ccccc2s1	-17	?	nt	nt	nt	-6	nt	nt	-2	-8
CC(NC(=O)COC(=O)c1ccco1)c1ccccc1 (stereo not drawn)	-1	-2.6	6	10	-0.8	-2	nt	nt	-4	1
O=C(c1ccccc1)c1cccn1CC(=O)N1CCCCCC1	-10	-1.5	nt	nt	nt	-9	nt	nt	-8	0
C=CCn1c(COc2ccc(Cl)cc2)nnc1SCC(=O)N/N=C/c1ccccc1	2	5.2	nt	nt	nt	-2	nt	nt	-1	1
CC(C)C(=O)Nc1ccccc1C(=O)N/N=C/c1ccc([N+](=O)[O-])cc1	8	-4.7	nt	nt	nt	1	nt	nt	-4	-6
Cc1cccc(C(=O)Nc2cccc(OC(=O)c3cccc(C)c3)c2)c1	-5	2.4	-8	-16	-0.8	2	nt	nt	16	-4
COC(=O)C1=CNC=C(C(=O)OC)C1c1cccc(OC)c1	-7	6.4	nt	nt	nt	3	nt	nt	3	0
CCOc1ccc(S(=O)(=O)N2CCc3ccccc3C2)cc1	5	9.9	nt	nt	nt	-4	nt	nt	3	0
CSCCC1NC(=O)N(C(C)C(=O)Nc2cc(Cl)cc(Cl)c2)C1=O (stereo not drawn)	4	-1.4	-21*	-13*	-1.2*	-13	i	4.8	-11	-5
COc1ccc(OC)c(NC(=O)CSc2nc(=O)n(CCN3CCOCC3)c3c2CCC3)c1	13	0.5	1	-12	-3.3	-16	i	6.2	0	nt
CCCc1cc(=O)oc2c(C)c(O[C@@H]3O[C@H](CO)[C@@H](O)[C@H](O)[C@H]3O)ccc12	3	0.7	-25	-32	-9.4	-3	i	-3.1	-3	-9
CCN(CC)S(=O)(=O)c1ccc(C)c(NC(=O)CN(C)C)c1	-13	-1.9	5	9	-0.1	-14	i	-6.0	40	-2
CC(=O)NCc1ccc(-c2csc(NC(=O)CCCc3nc4ccccc4c(=O)[nH]3)n2)cc1	nt	nt	-9	-11	-2.1	-5	i	-1.7	nt	0
O=C(N[C@@H](Cc1ccccc1)C(=O)OCc1ccccc1)c1ccco1	nt	nt	-38	-53	-11	26	i	-6.6	nt	-4
CCCCOc1ccc(C2CCC(C(C)=O)C(C)C2)cc1 (stereo not drawn)	6	-3.5	-3	-3	-10	0	i	-6.6	-1	5
CC(C)CCC(CCN1CCCC1)c1ccc2c(c1)OCO2 (stereo not drawn)	3	6.8	-7	-8	0.8	-9	i	2.8	2	1
CCOC(=O)c1oc2ccc(S(=O)(=O)Nc3ccc4c(c3)n(C)c(=O)n4C)cc2c1C	-4	0.6	nt	nt	nt	-6	nt	nt	19	65
Nc1c(N(C(=O)Nc2ccc(Cl)c(Cl)c2)C2CCCC2)c(=O)[nH]c(=O)n1Cc1ccccc1	14	-0.2	nt	nt	nt	-7	nt	nt	-6	27
COC(=O)C1=C(O)/C(=C\c2cc(C)n(-c3ccccc3F)c2C)N=C1C	2	1.2	16	19	4.0	-3	i	2.4	13	-3
COc1ccc(S(N)(=O)=O)cc1C(=O)OCC(=O)Nc1sccc1C#N	nt	nt	6	16	7.4	-13	i	-7.1	nt	1
O=C(NCCSc1ccc(Cl)cc1)c1ccc(CN2CCOCC2)cc1	16	0.7	-26	-26	-3.3	-3	i	-0.6	-18	5
Cc1ccc(-n2nc(C)c3c2OC(N)=C(C#N)C3c2ccccc2F)cc1 (stereo not drawn)	-19	-0.3	nt	nt	nt	40	nt	nt	8	4
COc1ccc(OCCNC(=O)c2cccc(Oc3ccc(C(F)(F)F)cc3[N+](=O)[O-])c2)cc1	-2	-4.1	nt	nt	nt	4	nt	nt	-39	-1
COC(=O)CSc1nc2cc(OC)ccc2n1C	2	0.8	17	2	-6.9	-1	i	7.1	7	6
COC(=O)c1c(NC(=O)c2ccc([N+](=O)[O-])o2)sc2c1CCN(C(C)C)C2	7	16*	nt	nt	nt	-2	i	-7.5	2	8
CCOC(=O)C1C(=O)OC(C)(C)C1C(CC)C(=O)c1c(C)cc(C)cc1C (stereo not drawn)	21	1.5	-18	-21	-2.8	-23	i	-1.3	1	-6
(listing goes on)
SMILES	T cruzi inh	RanGTP-Impb inh	Ecoli rRNA inh	Ecoli rRNA inh OD600	Ecoli rRNA inh RFP	ALR inh	FGF22 binding	AF4-AF9 inh	Calb FLC	Beta cell apopt
COC(=O)C1=C(C)OC(N)=C(C#N)C1c1cc2cc(C)ccc2nc1Cl (stereo not drawn)	10	1.6	-17	-8	19	17	i	0.5	2	-5
O=C(Nc1ccccc1C(F)(F)F)C(O)(c1ccccc1)C1CCCCC1 (stereo not drawn)	nt	nt	-4	-2	-8.5	-8	i	1.7	nt	5
Cc1cccc(NC(=O)CN2C(=O)NC(C)(c3ccc4c(c3)OCO4)C2=O)c1 (stereo not drawn)	-11	?	nt	nt	nt	-3	nt	nt	-21	-4
O=C(c1cccc(N2CCCC2=O)c1)N1CCN(c2ccccc2)CC1	10	1.0	nt	nt	nt	24	nt	nt	?	5
COc1ccc([N+](=O)[O-])cc1N(CC(O)Cn1nnc2ccccc21)S(=O)(=O)c1ccc(C)cc1 (stereo not drawn)	13	3.7	nt	nt	nt	-24	nt	nt	-26	11
Cc1cc(C)n(S(=O)(=O)c2ccc(C(C)(C)C)cc2)n1	15	-1.1	nt	nt	nt	-5	nt	nt	-11	-9
CCCCNC(=O)Nc1nc2ccccc2s1	7	-2.8	-6	-6	0.1	-1	i	-0.1	2	-4
COc1ccccc1-c1ccc(NC2CCCCC2)nn1	11	1.0	nt	nt	nt	32	nt	nt	-3	5
Oc1ccc(Br)cc1C=Nc1ccc(Cl)cc1	-18	3.2	6	11	3.9	-18	i	-2.2	-13	0
O=C(CC(=O)c1c(F)cccc1Cl)c1ccccc1O	3	5.4	-41	-70	-17	0	i	1.4	59	5
COc1ccc(NC(=O)CSc2nc(O)cc(=O)[nH]2)c(OC)c1	11	-1.5	5	3	-3.5	99*	nt	-1.3	11	2
CCc1cc(=O)oc2cc(OCC(=O)N3CCC(C(N)=O)CC3)ccc12	-7	-1.5	nt	nt	nt	-3	i	-1.8	-4	2
C[C@@H]1CN([C@@H](C)CO)C(=O)Cc2cc(NC(=O)Nc3ccc(F)cc3)ccc2O[C@@H]1CN(C)Cc1ccc(Cl)c(Cl)c1	nt	nt	1&20	-8&12	1.6&6.7	-3	i	3.9	nt	66
CCOC(=O)C1CCCN(c2c(NCCc3ccc(Cl)cc3)c(=O)c2=O)C1 (stereo not drawn)	-3	1.4	12	6	-0.9	-3	i	-8.1	-4	-3
Cc1ccc(C(=O)NCCNC(=O)Cc2ccccc2)cn1	3	0.7	13	8	-1.8	nt	i	0.3	?	0
COc1ccccc1NC(=S)NCCC(c1ccccc1)c1ccccc1	29	nt	-18	-12	-1.8	-8	i	0.7	nt	-1
CC(=O)Nc1ccc2nc3ccccc3nc2c1	-2	-73	-26*	-12*	-8.6*	nt	i	1.9	-8	nt
CCOc1ccc(S(=O)(=O)Nc2c(C)n(C)n(-c3ccccc3)c2=O)cc1	-12	1.2	15	9	-2.6	3	i	-1.2	6	0
N#CCCCn1c(-c2ccccc2)noc1=O	-10	4.2	nt	nt	nt	-4	nt	nt	5	-3
CCOC(=O)c1[nH]c2ccc(F)cc2c1NC(=O)CN1CCN(C/C=C/c2ccccc2)CC1	51	-6.0	nt	nt	nt	nt	nt	nt	-2	-2

This is a subset; count on the stated rates, not on these rows.
